From PubChem
eIF4H inh – inhibitors of RNA binding by human eIF4H. eIF4H fluorescence polarization binding assay. AID 2012. actives 0.94% (n = 290,000). inhibition, % at 35 µM. Q15056;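 active means 50% or more with normal probe brightness, or confirmed in later tests; inconclusive means above 50% with abnormal brightness, or retests that disagree; inactive means below 50% or failed in later tests; about a fifth of its hits are not listed in these tables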;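 further: calls also rest on retests at 20 µM and on dose response follow-up; 0% = protein and probe with vehicle and 100% = probe without protein; strong numbers were not always called active; many hits fall short of the cut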
MT1-MMP act inh – blocks activation of human MT1-MMP | GFP/RFP ratio change, % at 20 µM | AID 651647 | HT1080 RFP-PRO-GFP cells, GFP/RFP ratio fluorescence, overnight; percent of plate control window, DMSO zero | actives 0.061% (n = 360,000);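 active means GFP/RFP ratio change of at least 30% with cell ATP level not reduced by more than half and red fluorescence within 50% of control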; further: strong numbers were not always called active
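Material – HT1080 RFP-PRO-GFP cells · Control set – DMSO wells and RFP-L50D-GFP cells · Incubation – overnight cell settling, then overnight compound exposure, 37 °C, 5% CO2 · Compound dosing – single-point 20 µM compound, 1% DMSO · Read-out – GFP/RFP fluorescence ratio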
UUG fidelity – yeast start codon fidelity modulation; S. cerevisiae UUG-firefly luciferase reporter, luminescence/redox ratio; activity score, % at 18.7 µM; actives 0.13% (n = 350,000); AID 602363;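 active means replicate mean at a twofold rise or more, about +100% in these data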;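 further: firefly luciferase made from a UUG start codon reports start codon fidelity; reporter light over untreated wells divided by growth signal over untreated wells; some hits fall short of that in this replicate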
Rce1 inh – yeast Ras-converting enzyme inhibition; Q03530; yeast membranes, quenched prenylated peptide cleavage fluorescence; calls only; actives 0.27% (n = 290,000);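 active means fall in fluorescence gain of 50% or more versus controls, with final raw signal at or below 3038400; inconclusive means same 50% fall but final raw signal above 3038400; inactive means fall in fluorescence gain under 50%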;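 further: plate controls were neutral control wells for no effect and wells lacking membranes for full effect; tested at 10 µM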
Env fusion inh – inhibitors of HIV Env-mediated cell fusion; HeLa-JRFL Env/CEM21 cell fusion, luciferase; inhibition, % at 12.3 µM; actives 1.1% (n = 360,000);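 active means mean replicate inhibition score of at least 50 and every replicate individually at or above 50; inconclusive means only one of the two criteria met; inactive means mean below 50 and not all replicates reaching 50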;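 further: 0% = plate neutral controls and 100% = maraviroc near 300 nM; one replicate is shown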
PABP FP inh – PABP-poly(A) binding inhibition. P11940. inhibition, % at 35 µM. actives 1% (n = 290,000). AID 2014. PABP-poly(A) RNA binding, fluorescence polarization;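 active means 50% or more with normal probe brightness, or confirmed in later tests; inconclusive means above 50% with abnormal brightness, or retests that disagree; inactive means below 50% or failed in later tests; about a fifth of its hits are not listed in these tables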;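 further: calls also rest on retests at 20 µM and on dose response follow-up; controls were probe without protein and protein plus probe with vehicle; some compounds called inactive have numbers as strong as hits; many hits fall short of the cut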
Target sequence (P11940 whole entry, looked up): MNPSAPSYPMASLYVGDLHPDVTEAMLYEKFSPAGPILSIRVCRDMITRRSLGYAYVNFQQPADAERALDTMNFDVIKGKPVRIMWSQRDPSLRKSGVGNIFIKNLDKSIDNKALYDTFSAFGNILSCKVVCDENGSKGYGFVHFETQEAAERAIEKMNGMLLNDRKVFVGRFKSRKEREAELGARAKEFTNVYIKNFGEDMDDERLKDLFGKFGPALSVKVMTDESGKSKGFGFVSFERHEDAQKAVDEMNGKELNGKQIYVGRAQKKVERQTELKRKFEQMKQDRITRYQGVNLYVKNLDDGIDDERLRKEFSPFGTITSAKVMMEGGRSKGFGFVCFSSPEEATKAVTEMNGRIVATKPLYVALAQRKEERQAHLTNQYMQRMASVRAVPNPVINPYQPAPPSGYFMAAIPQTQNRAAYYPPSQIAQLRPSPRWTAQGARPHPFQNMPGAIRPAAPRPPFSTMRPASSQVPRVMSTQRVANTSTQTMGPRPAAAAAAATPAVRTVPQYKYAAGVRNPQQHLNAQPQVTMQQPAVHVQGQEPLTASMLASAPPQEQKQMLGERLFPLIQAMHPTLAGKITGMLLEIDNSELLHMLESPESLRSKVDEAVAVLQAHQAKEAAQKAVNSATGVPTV
CSC inhib – blocks cancer stem cells | cancer stem cell-like cells viability, luminescence | inhibition, % at 7.5 µM | actives 1.1% (n = 300,000);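 active means mean at 75% or more and at least half the replicates too; inconclusive means mean and replicates disagree; tested in HMLE shEcad cells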;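 further: 0% = median of negative and 100% = median of positive control wells; the first replicate is given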
eIF4H inh retest – further read-out of eIF4H inh, marked with its call; inhibition, %; compound at 20 µM; confirmation average;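 mean of two retest wells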
PABP FP inh retest – further read-out of PABP FP inh, marked with its call; inhibition, %; compound at 20 µM; confirmation repeats;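 mean of two retest wells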
MT1-MMP act inh RFP – recorded beside MT1-MMP act inh, whose call it bears; RFP signal change, %; measured here: RFP expression control read;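 0 = vehicle wells; hits needed this value within 50% of zero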
Starred values were filed as active, the others as inactive; i = inactive; ? = inconclusive; . = no result given; & = joins results of further samples.

SMILES	eIF4H inh	MT1-MMP act inh	MT1-MMP act inh RFP	UUG fidelity	Rce1 inh	Env fusion inh	PABP FP inh	CSC inhib	others
CSC(=Nc1cccc(C)c1)NC#N	5	-5	1	.	i	-3	9	-16
CC/C(=N\N=C1\SC(C)C(=O)N1Cc1ccco1)c1ccccc1 (configuration not stated)	1	-1	-2	5	i	.	3	37
COc1ccc(OC)c(S(=O)(=O)N(C)CC(=O)N2CCN(c3ccccc3)CC2)c1	-11	3	4	-8	i	.	1	-6
NC(=O)CC1NC(=O)c2ccccc21 (configuration not stated)	3	0	5	-15	.	-99	8	-4
Cc1cc(NC(=O)CSc2nnc(-c3ccccc3)n2C)no1	-6	3	7	.	i	1	0	-16
NC1=NC(=Nc2ccc(S(=O)(=O)N3CCOCC3)cc2)c2ccccc21	-10	-2	2	-10	i	-11	-9	7
COc1ccc(C2(c3ccc(OC)cc3)NC(=O)N(CC(=O)Nc3ccccc3C)C2=O)cc1	11	1	-2	-16	i	-5	9	9
COc1cc(NC(=O)c2ccccc2)c(OC)cc1NC(=O)CN1C(=O)N(C)C2(CCCCC2)C1=O	.	6	7	15	.	-23	.	.
Cc1ccc(C)c(OCC(=O)N/N=C/c2ccc(N3CCOCC3)cc2)c1	.	4	-4	-15	.	-5	.	.
CCOc1cc(/C=N/Nc2nn3cnnc3c3ccccc23)ccc1O	0	-1	-2	-28	i	5	15	21
CCOC(=O)c1c(C)oc2c(F)c(F)c(F)c(F)c2c1=O	-3	0	0	-11	i	.	-2	90*
C[C@H](CO)NC(=O)c1[nH]cnc1C(=O)Nc1cccc(Cl)c1	.	7	-1	-2	.	0	.	.
c1ccc(Sc2cnc3ccccc3n2)cc1	2	-1	-4	.	i	.	9	-5
Cc1cc(Br)ccc1NC(=O)CN1CCN(c2ccccn2)CC1	2	-2	-3	-4	i	-5	1	-10
COCCN(C(=O)CSc1nnc(-c2cccs2)n1N)c1c(N)n(Cc2ccccc2)c(=O)[nH]c1=O	-11	0	5	-13	i	8	6	-10
COCCn1nnnc1CN1CCC(O)(c2cccc(C(F)(F)F)c2)CC1	-2	-3	-1	-9	i	.	-1	-8
NNC(=O)CSCc1nc(-c2ccccc2)cs1	-1	4	-1	.	.	-1	-4	-1
O=C(Nc1ccc2nc[nH]c2c1)c1ccco1	-9	-1	1	-3	i	-45	37	12
COc1cc2c(cc1OC)C(c1ccccc1)CC2=O (configuration not stated)	17	0	-1	.	i	10	4	-12
CN1CCN(CCC(=O)Nc2ccc3c(c2)OCO3)CC1	2	-21	-8	-3	i	-14	-12	11
Cc1ccc(N(CC(=O)NCc2ccccn2)S(=O)(=O)c2ccccc2)cc1Cl	10	0	1	-6	i	.	3	-16
O=C(CCN1C(=O)c2ccccc2C1=O)NCc1ccncc1	-4	3	6	-4	i	-7	1	-3
COc1cc(O)c(C=NN2C(=O)CSC2=S)c(OC)c1	.	3	0	-23	.	19	.	.
Cc1cc([N+](=O)[O-])nn1Cc1noc(C(=O)NCCc2ccccn2)n1	-9	-1	0	-11	i	-6	-2	-18
Cc1ccc(C(=O)Nc2c(C)n(C)n(-c3ccccc3)c2=O)cc1S(=O)(=O)N1CCOCC1	-4	-1	3	-10	i	.	-13	-7
COC(=O)c1c(NC(=O)c2ccccc2OC)sc(C(=O)N2CCOCC2)c1C	-9	7	0	-17	.	29	2	-2
O=C(CN1C(=O)NC2(CCCC2)C1=O)Nc1nc(-c2ccc(F)c(F)c2)cs1	.	9	-2	-18	.	2	.	-1
O=C(Cc1cccc(NC(=O)C2CCN(C(=O)C3CC3)CC2)c1)Nc1cccc(C(=O)N2CCOCC2)c1	.	2	5	0	.	-4	.	.
Cc1ccc(NC(=O)c2oc3ccccc3c2NC(=O)C2CC2)cc1	-4	-4	-4	-15	i	20	6	-4
C=C(C)C(=O)N1CC2(CC(c3cccc(NC(=O)COc4ccc(Cl)cc4)c3)=NO2)C[C@@H]1C(N)=O (some centres not stated)	-8	3	-7	-14	i	14	-2	-14
CCCN1C(=O)c2cc(C(=O)Nc3ccc(OC)c(OC)c3)ccc2C1Nc1ccc(OC)c(OC)c1 (configuration not stated)	3	5	-5	.	.	10	78	-3	eIF4H inh retest=42;PABP FP inh retest=3
Cc1sc(NC(=O)Cn2c(=O)oc3ccccc32)nc1-c1ccc(Cl)cc1	-1	0	-8	.	i	-15	2	-7
CC(C)c1ccc(NC(=O)c2ccc3c(c2)CCN3S(C)(=O)=O)cc1	-5	4	-9	-20	i	-8	5	57
CCn1c(NCCCO)nc2c(c1=O)C(C)(CC)Cc1ccccc1-2 (configuration not stated)	-14	1	-5	.	?	15	-5	.
Cc1cc(NS(=O)(=O)c2ccc(NC(=O)COc3ccccc3[N+](=O)[O-])cc2)no1	36	-5	0	-14	i	-3	13	-3
C/C(=N/NC(=O)CNC(=O)/C=C/c1ccco1)c1ccc(Cl)cc1	24	2	-1	-21	i	13	14	.

Looked up one by one from the list above:
SMILES	eIF4H inh	MT1-MMP act inh	MT1-MMP act inh RFP	UUG fidelity	Rce1 inh	Env fusion inh	PABP FP inh	CSC inhib	others
CCn1c(NCCCO)nc2c(c1=O)C(C)(CC)Cc1ccccc1-2 (configuration not stated)	-14	1	-5	.	?	15	-5	.
C/C(=N/NC(=O)CNC(=O)/C=C/c1ccco1)c1ccc(Cl)cc1	24	2	-1	-21	i	13	14	.
O=C(Cc1cccc(NC(=O)C2CCN(C(=O)C3CC3)CC2)c1)Nc1cccc(C(=O)N2CCOCC2)c1	.	2	5	0	.	-4	.	.
Cc1cc(NS(=O)(=O)c2ccc(NC(=O)COc3ccccc3[N+](=O)[O-])cc2)no1	36	-5	0	-14	i	-3	13	-3

(list continues)
SMILES	eIF4H inh	MT1-MMP act inh	MT1-MMP act inh RFP	UUG fidelity	Rce1 inh	Env fusion inh	PABP FP inh	CSC inhib	others
CCOc1ccc(NC(=O)CCN2CCN(S(=O)(=O)c3ccc(F)cc3)CC2)cc1	-17	4	2	-5	i	2	-6	9
CC1CN(C(=O)/C=C/c2ccccc2Cl)CC(C)O1 (configuration not stated)	6	1	5	-3	i	1	-2	-8
CC(C)c1ccc(Oc2cccc(C(=O)/C(C#N)=C/N(C)C)c2)cc1	7	0	-1	-16	i	-6	2	4
CC(C)CC(=O)Nc1sc2c(c1C(=O)O)CCCCC2	1	2	5	.	i	12	12	-8
COc1ccc(C)cc1NC(=O)CNc1ccc(C(C)=O)cc1	-1	4	0	.	i	.	29	4
CCCCn1c(N)c(NCc2ccccc2OC)c(=O)[nH]c1=O	6	-1	5	.	i	7	-6	-2
Cc1nnc(NC(=O)NC(C)N2C(=O)C3C4C=CC(C4)C3C2=O)s1 (configuration not stated)	-1	5&-2	2&2	-13&-5	i	13	-2	-16
COc1ccc(C(=O)c2ncc(C(F)(F)F)cc2Cl)cc1	4	2	5	.	i	5	2	1
CC(=O)CCc1ccc(OCC(=O)Nc2cccc(S(=O)(=O)N(C)c3ccccc3)c2)cc1	.	0	-10	-7	.	-1	.	.
CCOC(=O)C1CCN(C(=O)Nc2ccccc2Cl)CC1	37	1	2	-23	i	-15	-7	-18
O=C(Cn1c2ccccc2c2nc3n(c(=O)c21)CCS3)Nc1ccccc1C(F)(F)F	-4	.	.	.	i	6	7	10
N#CCCn1nc(-c2ccccc2)cc1Nc1ccccc1NC(=O)C(F)(F)F	-10	6	3	-11	i	-19	-23	1
CCN(CC)c1ccc(S(=O)(=O)N2CCOCC2)cc1NC(=O)CNCc1ccccc1	-10	-2	-4	.	i	28	0	20
CC(C)C(NS(=O)(=O)c1cccc2nsnc12)C(=O)N1CCCCC1 (configuration not stated)	-2	2	5	-13	i	9	12	-14
CCOc1ccccc1NC(=O)CSc1nnc(-c2ccco2)n1Cc1ccco1	0	0	-2	-14	i	-22	-4	1
CCC1Nc2ncnc(N3CCN(c4ccccn4)CC3)c2N(Cc2ccc(Cl)cc2)C1=O (configuration not stated)	.	-2	0	-15	i	-29	.	-1
Cc1ccc(C)c(NC(=O)c2ccc3c(=O)n4c(nc3c2)CCC4)c1	.	-2	2	-10	.	.	.	-7
COc1ccc(N2CCN(C(CNC(=O)C(=O)NCCc3c[nH]c4ccccc34)c3ccco3)CC2)cc1 (configuration not stated)	0	2	-2	.	i	28	5	26
CS(=O)(=O)N1CCC(C(=O)Nc2ccc3c(c2)OCO3)CC1	-5	9	-5	.	i	-20	4	-19
COc1ccc(NC(=O)CC2(Cc3ccccc3)CCOC(C)(C)C2)cc1 (configuration not stated)	-8	4	4	.	i	17	10	-4
CCOC(=O)C1=C(C)NC(=O)NC1/C=C\c1ccccc1 (configuration not stated)	-10	3	2	-5	i	5	7	-6
Cc1cnc(C(=O)OC(C)C(=O)Nc2ccc(Cl)cn2)cn1 (configuration not stated)	.	-3	-1	-7	i	0	.	6
Cc1cccc(NC(=O)CN(CC2CCCO2)C(=O)c2ccc(S(C)(=O)=O)cc2)c1C (configuration not stated)	.	-2	3	-3	.	-6	.	.
CCn1cc([N+](=O)[O-])c(C(=O)N2N=C(c3ccc(O)c(OC)c3)CC2c2ccccc2O)n1 (configuration not stated)	10	-3	-2	-10	i	0	28	12
Cc1cccc(NC(=S)NNC(=O)CCn2nc(C)c([N+](=O)[O-])c2C)c1	7	-4	1	-21	i	-30	-1	4
O=C(CCCSc1nc2ccccc2s1)Nc1nccs1	-8	1	5	-15	i	-24	-1	4
CC(C)(C)c1ccc(N2C(=O)CC(c3ccccc3)C2=O)cc1 (configuration not stated)	-11	1	1	-19	i	10	-1	-13
O=C(CCc1nnc2ccc(NCc3ccco3)nn12)Nc1ccc(F)cc1F	14	0	3	-7	i	0	3	-5
O=C(NC1CC2CCCC(C1)N2Cc1cccs1)N1CCOCC1 (configuration not stated)	0	4	8	.	i	-6	-1	-8
N#C/C(C(=O)N1CCOCC1)=c1/s/c(=C\c2ccccn2)c(=O)n1-c1ccccc1	15	2	5	.	i	2	11	8
CC1(c2nnc(-c3ccncc3)o2)CC(c2ccc(F)cc2)=NO1 (configuration not stated)	8	-1	-10	-12	i	14	17	3
CC(=O)c1cccc(NC(=O)c2ccc3c(c2)CCN3S(=O)(=O)c2ccccc2)c1	3	2	-9	-7	i	-14	13	3
C/C(=N\NC(=O)c1ccccn1)C12CC3CC(CC(C3)C1)C2	8	15	1	-32	i	-22	-3	-10
CC1CN(S(=O)(=O)c2ccc(C(=O)Nc3ccccc3F)cc2)CC(C)O1 (configuration not stated)	.	2	-3	-4	.	.	.	-7
CCc1nc2ccccc2c(C(=O)NCc2ccc(OC)cc2)c1C	8	-2	-1	-4	i	12	1	-8
Cc1ccc(OCCCC(=O)NC(C)c2ccccc2)c(C)c1 (configuration not stated)	2	-2	-3	-6	i	?	41	-2
O=C(Nc1cccc2cccnc12)c1cccc(N2C(=O)CCC2=O)c1	6	2	2	-2	i	.	1	-5
Cc1nc2ccccc2c(=O)n1NS(C)(=O)=O	2	-1	5	-22	i	.	14	-7
O=C(COc1ccc(Cl)cc1)Nc1ncccn1	5	2	2	-23	i	-76	-2	-10
O=C(NOCc1ccccc1)c1coc(-c2ccccc2)n1	.	1	4	2	.	0	.	.
COc1ccc(-c2nn(Cc3ccccc3)cc2C(=O)N2CCN(c3ccccn3)CC2)cc1OC	.	4	-2	8	.	-2	.	-3
CCOC(=O)/C(C#N)=C1/SC(C)C(=O)N1c1ccc(Br)cc1 (configuration not stated)	-7	.	.	-31	i	-27	1	-2
O=C(O)CSc1ccc(NC(=O)Nc2ccccc2F)cc1	-10	2	-2	-17	i	-11	4	24
